# Bioassay records as filed in PubChem.
# CBX7 inh: inhibitors of human CBX7 binding to H3K27me3 peptide; 66,000 tested, 1.1% active; normalised signal (fraction of DMSO) (concentration not given with the values); AlphaScreen His6-CBX7 / biotin-H3K27me3 peptide binding; stronger effect = lower value; AID 1224903; O95931; in the data active = normalised signal below about 0.5;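 note: 100 nL library stock added to about 20 µL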
# Target sequence (O95931 whole entry, looked up): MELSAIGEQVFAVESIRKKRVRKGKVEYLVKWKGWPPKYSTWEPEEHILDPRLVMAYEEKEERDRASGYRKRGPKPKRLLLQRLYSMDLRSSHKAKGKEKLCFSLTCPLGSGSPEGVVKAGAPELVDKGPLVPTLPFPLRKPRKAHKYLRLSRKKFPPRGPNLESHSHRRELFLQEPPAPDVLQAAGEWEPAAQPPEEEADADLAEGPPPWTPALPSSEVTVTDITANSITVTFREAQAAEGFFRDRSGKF
# CBX7 inh z-score: recorded beside CBX7 inh, whose call it bears; z-score; measured here: z-score of CBX7 signal; some inactives read as strong as hits; reference of the scale not given here;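 same signal on another scale; lower means less binding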
# The depositor's hits bear a star; & = joins results of further samples.
SMILES,CBX7 inh,CBX7 inh z-score
COc1ccc(C(c2sc3nc(C)nn3c2O)N2CC(C)OC(C)C2)cc1OC (stereo not given),1.1,3.5
O=C(NCc1cccnc1)C1CCCN(C(=O)c2cnn(-c3ccccc3)c2-n2cccc2)C1 (stereo not given),1.2,1.2
O=C1CCN(C(=O)c2ccccc2)c2ccccc2N1,0.93,-1.4
COc1ccc2c(c1)c(CC(=O)NCCOc1c(C)cccc1C)c(C)n2C(=O)c1ccc(Cl)cc1,1,0.028
COc1cc(OC)cc(-n2nc(C(=O)N3CCN(c4ccccc4)CC3)c3ccccc3c2=O)c1,0.87,-3.6
Cc1cc(C)c(C(N)=O)c(Nc2ccc(F)cc2)n1,1,0.048
Cc1cc(C)cc(OC(C)C(=O)Nc2c(C(=O)c3ccc(Cl)cc3)oc3ccccc23)c1 (stereo not given),1.1,0.3
COc1ccc2nc(N3CCC(C(=O)NCc4ccc(F)cc4)CC3)sc2c1,1.1,1.3
O=C(NCCc1ccccc1)c1ccc2c(c1)N(Cc1cccc(Cl)c1)C(=O)CS2,1.1,2.7
COc1ccc(NC(=O)Cn2cc(S(=O)(=O)c3ccccc3)c(=O)c3cc(F)ccc32)cc1OC,0.99,-0.38
Cn1cc(CC(=O)NCCCN2CCOCC2)c2ccccc21,0.9,-1.4
CCCCOc1ccc(C2C(=O)N(C3CCCCC3)CC(=O)N2Cc2ccccc2Cl)cc1 (stereo not given),0.73,-1.1
COc1ccc(OC)c(NC(=O)c2sc3nc(C)nc(N4CCC(C)CC4)c3c2C)c1,0.88,-1.8
O=C(Nc1c(C(=O)Nc2ccc(F)cc2)oc2ccccc12)c1ccccc1F,1.1,2
O=C(NCc1ccc(F)cc1)c1cc(-c2ccc(Cl)cc2)on1,1.1,0.12
Cc1ccc2cc(CCNC(=O)CC(C)(C)C)c(=O)[nH]c2c1C,1.1,1.3
O=C(CN1CCOCC1)NCC1(c2ccccc2)CCCC1,0.98,-0.39
CC(C)C1Nc2ccc(C(=O)N3CCN(c4ccccn4)CC3)cc2NC1=O (stereo not given),1,0.015
CCOc1ccc(NS(=O)(=O)c2ccc3[nH]cc(C(=O)N4CCCCC4)c(=O)c3c2)cc1,0.8,-0.85
CN1CCN(Cc2nc3c(c(=O)[nH]c(=O)n3C)n2CCc2ccccc2)CC1,1,1.6
CCOC(=O)c1cc(-c2ccccc2)n(CCC(=O)NCc2ccc(C)cc2)c1C,0.98,-0.19
COC(=O)c1c[nH]n2c(NC3CCCCC3)c(-c3ccc(OCCC(C)C)c(OC)c3)nc12,0.37*,-12*
COCCn1c(=O)[nH]c2cc(C(=O)NCc3cccnc3)ccc2c1=O,1.1,1.1
c1ccc(OCCCCSc2nnc(-c3ccccc3)o2)cc1,1.1,0.2
CCN(CC)CCn1c(-c2ccccc2)cn2c3ccccc3nc12,0.96,-1.3
# (listing goes on)
SMILES,CBX7 inh,CBX7 inh z-score
NS(=O)(=O)c1ccc(CCNC2CC(=O)N(c3ccc(Cl)cc3)C2=O)cc1 (stereo not given),1,0.21
CCOc1ccccc1CNC(=O)CCCN1C(=O)CSc2ncccc21,0.6,-3.1
COc1ccc(-c2noc(-c3ccc(F)cc3)n2)cc1,1.1,0.14
Cc1c(C(=O)Nc2cccc(C(F)(F)F)c2)sc2ncn(CC(=O)N3CCCC(C)C3)c(=O)c12 (stereo not given),1.1,0.47
COC(=O)c1ccccc1NC(=O)CC1Oc2ccc(C)cc2NC1=O (stereo not given),1,1.6
CCC(=O)N1CCc2cc(S(=O)(=O)NCC(=O)NC3CCCC3)ccc21,0.96,-0.75
CCN(CC)C(=O)c1sc2ncn(CC(=O)Nc3cccc(C(F)(F)F)c3)c(=O)c2c1C,1,0.28
O=C(CN1CCN(Cc2ccc(F)cc2Cl)C1=O)NCCCN1CCOCC1,1,0.0047
O=C(O)c1cccc(-n2c(/C=C\c3cccc(C(F)(F)F)c3)nc3ccccc3c2=O)c1,1.1,0.78
COc1ccc(S(=O)(=O)N2CCC(C(=O)Nc3c(C)cccc3C)CC2)cc1,1,0.58
N#CCCN(C(=O)Cn1nc(Cc2ccncc2)c2ccccc2c1=O)c1ccccc1,1.1,0.61
COc1ccc(CN2CCN(Cc3cc(OC)ccc3OC)CC2)cc1,0.74,-3.2
Cc1cc(N2CCN(C(c3ccccc3)c3ccc(Cl)cc3)CC2)n2ncnc2n1 (stereo not given),0.9,-1.3
O=C(Nc1nc(-c2ccc(F)cc2)cs1)c1cccnc1,1.1&1.1,0.82&1.7
CCOC(=O)c1c(C)n(-c2ccc(C)cc2)c2ccc(O)cc12,0.93,-1.1
O=C(O)Cc1sc(Nc2ccc(F)cc2)nc1-c1ccc(F)cc1,0.81,-2.1
CC1CCCC(C)N1Cc1nn2c(C(F)(F)F)c3c(nc2c1Cl)-c1ccccc1CC3 (stereo not given),1.1,2
COc1ccc(NC(=O)C2CC(=O)N(C(C)C)C2)cc1 (stereo not given),0.94,-1.4
COCC(=O)NC(C)c1nc2ccccc2n1Cc1ccccc1C (stereo not given),1,0.91
NC(=O)CSc1nnc(Cc2cc(=O)[nH]c(=O)[nH]2)n1-c1ccc(F)cc1,1,1.3
O=C(Nc1ccc2oc(-c3cc(Br)ccc3Cl)nc2c1)c1ccccc1F,1,0.22
CC(=O)N1CCc2cc(S(=O)(=O)NC(C(=O)Nc3ccc(C(C)C)cc3)C(C)C)ccc21 (stereo not given),1,1.3
CCn1cc(C(=O)N(C)c2ccc(C(C)C)cc2)c2cc(OC)c(OC)cc2c1=O,0.97,-0.27
CCOc1ccccc1CNC(=O)C1CCN(C(=O)c2sccc2-n2cccc2)CC1,0.97,-1.2
CCCCCn1c(C(C)NC(=O)c2cccc(C)c2)nc2ccccc21 (stereo not given),0.99,-0.5

# Profiles from above. Values in the order: CBX7 inh, CBX7 inh z-score
# Record of Cc1c(C(=O)Nc2cccc(C(F)(F)F)c2)sc2ncn(CC(=O)N3CCCC(C)C3)c(=O)c12 (stereo not given) = 1.1, 0.47
# Record of NC(=O)CSc1nnc(Cc2cc(=O)[nH]c(=O)[nH]2)n1-c1ccc(F)cc1 = 1, 1.3
# Record of COc1ccc(NC(=O)C2CC(=O)N(C(C)C)C2)cc1 (stereo not given) = 0.94, -1.4
# Record of CC(=O)N1CCc2cc(S(=O)(=O)NC(C(=O)Nc3ccc(C(C)C)cc3)C(C)C)ccc21 (stereo not given) = 1, 1.3
# Record of CCOc1ccccc1CNC(=O)CCCN1C(=O)CSc2ncccc21 = 0.6, -3.1

# Remaining list, next part
SMILES,CBX7 inh,CBX7 inh z-score
CCOc1ccc(-c2cc(C(=O)N3CCCCC3)c3ccccc3n2)cc1,0.95,-1
COc1ccc(CNC(=O)C2CCCN(S(=O)(=O)c3cccs3)C2)cc1 (stereo not given),1,1.2
NC(=O)C1(N2CCCCC2)CCN(c2nc3ccccc3c(=O)n2Cc2ccccc2)CC1,1.2,0.32
Cc1c(O)nc(Nc2nc(C)c3ccccc3n2)[nH]c1=O,1,0.04
CCCn1nnc(NC(=O)Cc2ccc(Cl)cc2)n1,1,0.89
Cc1ccc(CCNC(=O)C2CCCN(C(=O)c3cc4sccc4n3C)C2)cc1 (stereo not given),0.93,-2.1
COc1ccc(-c2nc(CN3CCC(C(=O)N4CCCC4)CC3)c(C)o2)cc1,1,0.52
Cc1nc2cc(C(=O)O)ccc2n1-c1ccccc1,0.99&1.1,-0.11&1.8
CCn1c(C(=O)N2CCCC(C(=O)NC3CCCC(C)C3C)C2)cc2sccc21 (stereo not given),0.72,-8.1
Cc1cccc(OCCCn2c(CCCO)nc3ccccc32)c1,0.74,-2.8
Cc1ccc(S(=O)(=O)Nc2ccccc2CNc2ccc(C3CCCCC3)cc2)cc1,0.7,-0.7
Cc1ccc(F)c(NC(=O)Nc2ccc3snnc3c2)c1,1,0.018
Cc1ccc(-c2nc3cnccn3c2Nc2ccc(Cl)cc2)cc1,1.1,2.5
Cc1n[nH]c(C)c1CCCCCCOc1ccccc1C(C)C,0.95,-0.77
CCn1cc(C(=O)N2CCN(c3ccc(OC)cc3)CC2)c2cc(OC)c(OC)cc2c1=O,0.59,-5.9
COc1ccc(Nc2ncc(C(=O)Nc3ccc(Oc4ccccc4)cc3)c3ccccc23)cc1,0.93,-1.1
COCCNC(=O)c1ccc2c(c1)N(Cc1ccc(C(F)(F)F)cc1)C(=O)c1ccccc1S2,0.99,-0.055
CCOc1ccc(C(O)c2nc3ccccc3n2Cc2ccccc2)cc1 (stereo not given),1.1,1
CC(C)Oc1ccc(-c2cc(C(=O)NCc3ccncc3)c3ccccc3n2)cc1,1,0.97
O=C(Cc1c(F)cccc1Cl)N1CCNc2ccccc2C1,0.99,-0.17
COc1ccc(-c2nc(S(=O)(=O)c3ccc(Cl)cc3)c(N3CCOCC3)o2)cc1,0.79,-2.4
COCCCNC(=O)Cn1ncc2c1-c1ccccc1OC2,0.91,-1.2
CC1CCN(C(C(=O)Nc2ccc(C(C)C)cc2)c2ccccc2)CC1 (stereo not given),1.1,0.77
CCC1Oc2ccc(C)cc2N(CC(=O)N2CCN(c3cccc(C)c3C)CC2)C1=O (stereo not given),1,1
CCCCNC(=O)c1cnn2c(C)c(Cc3ccccc3)c(C)nc12,1.1,1.4

# Retrieved by structure from the list above (6):
SMILES,CBX7 inh,CBX7 inh z-score
COc1ccc(CNC(=O)C2CCCN(S(=O)(=O)c3cccs3)C2)cc1 (stereo not given),1,1.2
CCCn1nnc(NC(=O)Cc2ccc(Cl)cc2)n1,1,0.89
COCCCNC(=O)Cn1ncc2c1-c1ccccc1OC2,0.91,-1.2
COc1ccc(-c2nc(S(=O)(=O)c3ccc(Cl)cc3)c(N3CCOCC3)o2)cc1,0.79,-2.4
Cc1cccc(OCCCn2c(CCCO)nc3ccccc32)c1,0.74,-2.8
COc1ccc(Nc2ncc(C(=O)Nc3ccc(Oc4ccccc4)cc3)c3ccccc23)cc1,0.93,-1.1

# (cont.)
SMILES,CBX7 inh,CBX7 inh z-score
Cc1ccc(S(=O)(=O)N2CCC(C(=O)Nc3ccccc3)CC2)cc1,1.1,2.2
O=C(CSCc1cnn(-c2ccccc2)c1-n1cccc1)NC1CCCCCC1,0.99,-0.41
CCC(C)Sc1oc(-c2ccccc2)nc1S(=O)(=O)c1ccc(Cl)cc1 (stereo not given),1.1,4.3
Cc1ccc(OCCOCCn2c(-c3ccc(Cl)cc3)nc3ccccc3c2=O)cc1,1.3,3
Cc1ccc(NC(=O)C2=CCN(S(=O)(=O)c3ccccc3)CC2)cc1,0.99,-0.16
COc1ccc(C2CC(=O)c3c([nH]c(C(=O)OCC4CCCCC4)c3C)C2)cc1 (stereo not given),1.1,3.1
CC1CC(C)CN(S(=O)(=O)c2ccc(C(=O)Nc3sc4c(c3C(N)=O)CCCCC4)cc2)C1 (stereo not given),1.2,1.6
Clc1ccc(-c2noc(-c3cccs3)n2)cc1,1.3,12
CCOC(=O)CNS(=O)(=O)c1cc(-c2nnc(Nc3ccc(O)cc3)c3ccccc23)ccc1C,0.6,-7.5
CCOc1ccc(C(=O)Nc2ccc(-c3nc4ncccc4o3)cc2)cc1,1.1,0.49
CC(=O)N1CCc2cc(S(=O)(=O)NC(CC(C)C)C(=O)NCc3ccccc3)ccc21 (stereo not given),1.1,1.4
CCOC(=O)c1c(NC(=O)c2ccccc2C)sc2c1CCCC2,1.8,7
COc1cccc(NC2(c3nnnn3-c3ccccc3C)CCCC2)c1,1,0.21
CCN(C(=O)Cc1c(C(=O)O)[nH]c2ccc(Cl)cc12)c1cccc(C(F)(F)F)c1,0.89,-1
CCCCN(C)S(=O)(=O)c1ccc(C(=O)Nc2ccccc2-c2nc3ccccc3s2)cc1,1.1,1.2
CCCNC(=O)OCC12COC3c4ccccc4OC(C)(CC1C)C3C2C (stereo not given),0.94,-0.36
Cc1nc(N2CCc3ccccc3C2)c2c3c(sc2n1)CCCC3,0.99,-0.37
COC(=O)Cc1nc(Nc2cccc(OC)c2)c2c(C)c(C)sc2n1,0.8,-0.2
Cc1ccc(CCNC(=O)c2c[nH]n3c(=O)c(Cc4ccc(F)cc4Cl)c(C)nc23)cc1,1,1.4
COc1ccc(-c2noc(CCCN3C(=O)c4ccccc4C3=O)n2)cc1,0.92,-1
COc1ccc(NC(=O)N(CCCN2CCOCC2)Cc2cccnc2)c(OC)c1,1,0.047
CCCCOC(=O)c1ccc(NC(=O)CSc2nc3ccccc3n2C)cc1,1,0.24
COc1ccccc1NC(=O)c1cccnc1NCCO,1,0.52
Cc1oc(-c2ccc(Cl)cc2)nc1CN1CCC(C(=O)NCCc2ccc(Cl)cc2)CC1,1.1,1.3
CC1CCN(c2nc3ccc(C(=O)NCCN4CCCCCC4)cc3s2)CC1,1.6,5.3
# Later entries.
SMILES,CBX7 inh,CBX7 inh z-score
COC(=O)c1cc2oc(C)cc2n1Cc1cccc(F)c1,0.97,-1
COc1cccc(CC(=O)Nc2ccc3nc(N4CCN(C)CC4)cc(C)c3c2)c1,0.87,-4.6
COc1ccc(-c2nc3cc(NC(=O)c4ccc5ccccc5c4)ccc3o2)cc1,1,1.1
COc1ccc(CCNC(=O)CCc2c(C)nc3ncnn3c2C)c(OC)c1,1.1,1.6
Cc1ccc(C)c(N2CCN(C(=O)CC3Oc4ccccc4NC3=O)CC2)c1 (stereo not given),0.81,-1.1
CC(=O)Nc1ccccc1/C=C/c1ccc2c(C)ccc(OC(C)=O)c2n1,0.97,-0.38
Cc1ccc(-c2nc3cc(NC(=O)c4ccc(Br)cc4)ccc3o2)cc1,0.88,-0.5
COC(CNC(=O)c1ccc2c(c1)N(Cc1ccc(F)cc1)C(=O)c1ccccc1S2=O)OC (stereo not given),1,0.38
O=C(NCCc1ccc(Cl)cc1)c1cc(-c2ccccc2)nc2ccccc12,1.1,1.3
COc1ccc(C2=NN(CC(=O)Nc3ccccc3C)C(=O)CC2)cc1,1.1,2.3

# Some of these compounds in order of number of heavy atoms, largest number first.
SMILES,CBX7 inh,CBX7 inh z-score
COc1ccc(-c2nc3cc(NC(=O)c4ccc5ccccc5c4)ccc3o2)cc1,1,1.1
Cc1ccc(C)c(N2CCN(C(=O)CC3Oc4ccccc4NC3=O)CC2)c1 (stereo not given),0.81,-1.1
COC(=O)c1cc2oc(C)cc2n1Cc1cccc(F)c1,0.97,-1

# This is a subset; the hit share may differ from the screen's.
